BJeLR viab HTS – BJeLR cell viability reduction. viability loss activity score, % (no concentration beside the values). AID 2275. BJeLR fibroblasts viability, CellTiterGlo ATP luminescence, 48 h; HRASV12, hTERT and SV40 LT/ST transformed. 0.64% of 30,000 active; in the data active means viability loss activity score above about 50%; about a fifth of its hits are not listed in these tables;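 further: higher score means fewer live cells and less ATP luminescence; stock transfer was 50 or 100 nL into about 30 µL; 0% = vehicle wells and 100% = a reference killing control; one replicate is shown; the record names a cut of 85%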
A1 inhib – A1 inhibition; MEF A1-2A-BIM cells, caspase-Glo luminescence, 3 h; percent of clofoctol signal, DMSO as zero; caspase activation, % (no concentration beside the values); 0.51% of 21,000 active; AID 2241;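 active means most replicate scores above 10, or exactly half above 10 with mean activity above 10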;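 further: effector caspase 3 and 7 activity cleaving a DEVD luciferin substrate; 50 nL library stock added to about 30 µL; numbers are from one replicate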
The depositor's hits bear a star; . = no result given. Only part of the results is shown. The share of hits here may be higher or lower than overall.

SMILES | BJeLR viab HTS | A1 inhib
C[C@@H]1CN([C@@H](C)CO)C(=O)c2cc(NS(=O)(=O)c3ccc(Cl)cc3)ccc2O[C@@H]1CN(C)C | -2.6 | -0.8
C[C@@H]1CN([C@@H](C)CO)C(=O)c2cc(NC(=O)Nc3ccc(F)cc3)ccc2O[C@@H]1CN(C)Cc1ccncc1 | -2.3 | -0.1
Nn1c(C(=O)N2CCCC2)nc2ccccc2c1=O | -0.6 | -0.3
COc1ccc(CNc2nc(N)n(-c3ccccc3)n2)cc1 | -1.4 | .
O=C(CCCC1=NS(=O)(=O)c2ccccc2N1)Nc1ccccc1 | -4.0 | 0.5
Cn1c(=O)c2cc(S(=O)(=O)NCCC(=O)NC3CCCC3)ccc2n(C)c1=O | -1.8 | .
C[C@@H]1CC(=O)c2c(ccc3c2C(=O)c2cccc(O)c2C3=O)C1 | -6.8 | -3.0
C[C@@H]1CN([C@H](C)CO)C(=O)c2cc(NS(=O)(=O)c3ccccc3)ccc2O[C@@H]1CN(C)C(=O)Nc1ccccc1 | 4.1 | 0.0
Cc1cc(C(=O)Nc2cccc3c2O[C@H](CN(C)Cc2ccncc2)[C@@H](C)CN([C@@H](C)CO)C3=O)n(C)n1 | 3.2 | .
O=C1/C(=C\c2ccc(F)cc2)N=C(c2ccccc2)N1Cc1ccc(F)cc1 | -1.5 | -0.9
CCc1nnc(NC(=O)c2noc3c2COc2ccc(C)cc2-3)s1 | 1.4 | 0.4
C[C@H](CO)N1C[C@H](C)[C@@H](CN(C)C(=O)Nc2ccccc2)Oc2ccc(NC(=O)Nc3ccccc3)cc2C1=O | 0.5 | -0.3
O=C(NCc1ccccc1)c1ccc2c(=O)n(CCC3=CCCCC3)c(=O)[nH]c2c1 | 0.2 | -0.1
COCC(=O)NCc1nn(-c2ccccc2)nc1C | 1.5 | 2.7
C[C@@H]1CN([C@@H](C)CO)C(=O)c2cc(NC(=O)Nc3ccc(C(F)(F)F)cc3)ccc2O[C@H]1CN(C)C(=O)Nc1ccc2c(c1)OCO2 | -1.9 | -0.2
C[C@@H]1CN([C@H](C)CO)C(=O)c2cc(NC(=O)Nc3ccc(F)cc3)ccc2O[C@@H]1CN(C)S(=O)(=O)c1cn(C)cn1 | 0.0 | 1.7
COc1ccc(-n2nc(C(=O)NCc3ccc(C)cc3)c3c4ccccc4n(C)c3c2=O)cc1Cl | -1.2 | .
C[C@H](CO)N1C[C@H](C)[C@H](CN(C)Cc2ccc(-c3ccccc3)cc2)Oc2c(NS(=O)(=O)c3ccccc3)cccc2C1=O | -1.1 | .
Cc1noc(C)c1NC(=O)N(C)C[C@@H]1Oc2ccc(NC(=O)Cc3ccccc3)cc2C(=O)N([C@@H](C)CO)C[C@@H]1C | -3.3 | -1.5
C[C@H]1CN([C@@H](C)CO)C(=O)c2cc(NS(=O)(=O)c3cn(C)cn3)ccc2O[C@@H]1CN(C)S(=O)(=O)c1cn(C)cn1 | -2.7 | 0.5
C/C=C(/C)C(=O)O[C@H]1CC(C)(C)C[C@H]2C3=CCC4[C@@]5(C)CC[C@H](O[C@@H]6O[C@H](C(=O)O)[C@@H](O[C@@H]7O[C@H](CO)[C@H](O)[C@H](O)[C@H]7O[C@@H]7O[C@H](CO)[C@@H](O)[C@H](O)[C@H]7O)[C@H](O)[C@H]6O[C@@H]6O[C@@H](C)[C@H](O)[C@@H](O)[C@H]6O)C(C)(C)C5CC[C@@]4(C)[C@]3(C)[C@@H](O)[C@@H](O)[C@@]12CO (stereo not given in full) | 103.6* | -2.4
CC12CCCCC1C1(C=CC(=O)C=C1)C(c1ccccc1)=N2 (stereo not given) | -1.3 | -0.5
C[C@@H]1CN([C@@H](C)CO)C(=O)c2cccc(NS(=O)(=O)c3ccccc3)c2O[C@@H]1CN(C)C(=O)Nc1ccc(F)cc1 | -1.4 | .
Cc1cc(C(=O)Nc2cccc3c2O[C@@H](CN(C)C(=O)Nc2ccc(C(F)(F)F)cc2)[C@H](C)CN([C@@H](C)CO)C3=O)n(C)n1 | -1.9 | .
CN(C(=O)c1c[nH]c2ccc(S(=O)(=O)N3CCC4(CC3)OCCO4)cc2c1=O)C1CCCCC1 | 1.7 | 1.0
Cc1ccc(S(=O)(=O)NCCN2CCN(S(=O)(=O)c3ccc(C)c(C)c3C)CC2)c(C)c1C | -4.6 | .
COc1ccccc1N1CCN(CCCCNC(=O)c2ccc(-c3ccc(C(C)=O)cc3)cc2)CC1 | 10.9 | 0.1
C[C@H](CO)N1C[C@H](C)[C@@H](CN(C)C(=O)NC2CCCCC2)Oc2ccc(NC(=O)CCCCCC(=O)Nc3ccccc3N)cc2C1=O | -2.0 | .
C[C@H]1CN([C@@H](C)CO)C(=O)c2cccc(NC(=O)c3ccncc3)c2O[C@H]1CN(C)C | 0.9 | .
COc1ccc(CN(C)C[C@@H]2Oc3ccc(NC(=O)C4CC4)cc3C(=O)N([C@H](C)CO)C[C@H]2C)cc1 | -0.9 | -0.6
CNC[C@H]1Oc2ccc(NC(=O)Cc3cn(C)c4ccccc34)cc2C(=O)N([C@@H](C)CO)C[C@@H]1C | 0.2 | 1.6
C[C@H](CO)N1C[C@H](C)[C@H](CN(C)S(=O)(=O)c2ccc(Cl)cc2)Oc2ccc(NC(=O)C3CCCCC3)cc2C1=O | -4.4 | 0.2
Cc1ccc(S(=O)(=O)Nc2ccc3c(c2)C(=O)N([C@@H](C)CO)C[C@H](C)[C@H](CN(C)Cc2ccc(Oc4ccccc4)cc2)O3)cc1 | -8.3 | 0.5
NNC(=O)CSc1nc(-c2ccccc2)nc2c1CCCC2 | -2.9 | .
Cc1ccc(OCC(O)CN2C(=O)NC(C)(C)C2=O)cc1 (stereo not given) | 1.8 | -0.6
C[C@H]1CN([C@@H](C)CO)C(=O)c2cc(NC(=O)C3CC3)ccc2O[C@H]1CN(C)Cc1ccc2c(c1)OCO2 | 0.1 | -0.1
O=C(Nc1ccc(Br)cc1)C12CC3CC(CC(C3)C1)C2 | -1.8 | 0.7
COc1ccc(CN(C)C[C@H]2Oc3c(NS(=O)(=O)c4ccccc4)cccc3C(=O)N([C@@H](C)CO)C[C@H]2C)cc1 | -3.0 | .
CC1(C)C=C(c2ccc(C3=CC(C)(C)NC(C)(C)C3)s2)CC(C)(C)N1 | 6.2 | 0.3
CC(C)COc1ccc(/C(=N\O)c2ccccc2)cc1 | -3.9 | -0.4
CN1CCc2nc(SCc3cccc(C(F)(F)F)c3)c(C#N)cc2C1 | -0.3 | .
COc1ccc(-c2coc3c(OC)c(O)ccc3c2=O)cc1 | 5.8 | -2.8
O=C(O)c1ccc(CSC2CCCCC2)cc1 | 1.2 | .
CCOc1ccc(CCNC(=O)c2ccc3c(=O)n4c(nc3c2)CCCCC4)cc1 | 9.3 | -0.4
C[C@H](CO)N1C[C@H](C)[C@@H](CN(C)C(=O)Nc2ccc3c(c2)OCO3)Oc2ccc(NS(=O)(=O)c3cn(C)cn3)cc2C1=O | 0.5 | 1.0
CCCc1cnc(N2CCN(C(=S)NC)CC2)nc1 | 5.6 | .
Cc1noc(C)c1NC(=O)N(C)C[C@@H]1Oc2c(NC(=O)c3nc4ccccc4s3)cccc2C(=O)N([C@@H](C)CO)C[C@@H]1C | 1.5 | .
COc1ccc(NC(=O)N(C)C[C@@H]2Oc3ccc(NC(=O)CCN4CCOCC4)cc3C(=O)N([C@H](C)CO)C[C@H]2C)cc1 | -4.4 | -0.7
C[C@@H]1CN([C@H](C)CO)C(=O)c2cccc(NC(=O)Nc3ccc4c(c3)OCO4)c2O[C@@H]1CN(C)S(=O)(=O)c1ccccc1 | 7.6 | .
C[C@H](CO)N1C[C@H](C)[C@H](CN(C)Cc2ccc3c(c2)OCO3)Oc2c(cccc2N(C)C)C1=O | 0.7 | .
CC(=O)Nc1cc(C(=O)NCc2ccccc2)ccc1Sc1ccc(Cl)cc1 | 3.8 | -0.5
Cc1csc(-c2cn(C(C)C)c(=O)n(Cc3ccccc3)c2=O)n1 | 0.5 | 0.5
Cc1nc2ccc(S(=O)(=O)NC(C(=O)Nc3nc4ccc(Cl)cc4s3)C(C)C)cc2s1 (stereo not given) | -3.8 | .
CC(C)N(CCC#N)C(=O)Nc1ccccc1 | -11.0 | -0.5
Cc1ccc(C(=O)Nc2ccc(CN3CCS(=O)(=O)CC3)cc2)cc1C | 6.3 | -0.3
CCCCn1nnc2c(=O)oc3ccccc3c21 | 3.3 | 0.5
Cc1ccc(C2CC(c3cccs3)=NN2C(=O)CSc2ncnc3ccccc23)cc1 (stereo not given) | -34.8 | .
C[C@@H]1CN([C@H](C)CO)C(=O)c2cc(NC(=O)CCCCCC(=O)Nc3ccccc3N)ccc2O[C@H]1CN(C)S(=O)(=O)c1ccc(Cl)cc1 | 3.3 | .
C[C@@H]1CN([C@@H](C)CO)C(=O)c2cccc(NC(=O)c3nc4ccccc4s3)c2O[C@@H]1CN(C)Cc1ccc(Oc2ccccc2)cc1 | -2.3 | .
COc1ccccc1-c1nnc2ccc3ccccc3n12 | 2.5 | .

Grouped by structure: those above containing a COOH group (2)
SMILES | BJeLR viab HTS | A1 inhib
C/C=C(/C)C(=O)O[C@H]1CC(C)(C)C[C@H]2C3=CCC4[C@@]5(C)CC[C@H](O[C@@H]6O[C@H](C(=O)O)[C@@H](O[C@@H]7O[C@H](CO)[C@H](O)[C@H](O)[C@H]7O[C@@H]7O[C@H](CO)[C@@H](O)[C@H](O)[C@H]7O)[C@H](O)[C@H]6O[C@@H]6O[C@@H](C)[C@H](O)[C@@H](O)[C@H]6O)C(C)(C)C5CC[C@@]4(C)[C@]3(C)[C@@H](O)[C@@H](O)[C@@]12CO (stereo not given in full) | 103.6* | -2.4
O=C(O)c1ccc(CSC2CCCCC2)cc1 | 1.2 | .

Following part:
SMILES | BJeLR viab HTS | A1 inhib
COc1cccn(Cc2nnc(SCC(=O)c3ccccc3)o2)c1=O | -3.5 | 0.2
Cc1nc(SCCC(=O)O)c2oc3ccccc3c2n1 | -2.8 | -0.5
CC(=O)O[C@@H]1[C@@H](O)C[C@@]2(C)C(CC[C@@H](C)C23Cc2c(O)cc4c(c2O3)CN([C@@H](CCC(=O)O)C(=O)O)C4=O)C1(C)C (stereo not given in full) | 6.0 | 0.8
COC(=O)c1nn(-c2ccccc2)c(=O)c2c(N)sc(C)c12 | 6.9 | -0.5
O=C(CC1SC2=NCCN2C1=O)Nc1ccccc1 (stereo not given) | 4.1 | .
CC(=O)O[C@@H]1c2c(ccc3ccc(=O)oc23)OC(C)(C)[C@@H]1OC(=O)C=C(C)C | -5.7 | -1.7
CC(C)Oc1ccc(CNCCC(c2ccccc2)c2ccco2)cc1 (stereo not given) | 2.9 | -0.9
Cc1noc(C)c1NC(=O)Nc1ccc2c(c1)C(=O)N([C@@H](C)CO)C[C@@H](C)[C@@H](CN(C)C(=O)Nc1cccc3ccccc13)O2 | 5.5 | 0.7
C[C@@H]1CN([C@H](C)CO)C(=O)c2cccc(NC(=O)Nc3ccc(C(F)(F)F)cc3)c2O[C@H]1CN(C)C | -2.4 | .
O=C1c2ccccc2C(=O)N1CC1COc2ccccc2O1 (stereo not given) | 1.6 | -0.1
C[C@H]1CN([C@@H](C)CO)C(=O)c2cccc(NS(=O)(=O)c3cccs3)c2O[C@H]1CN(C)CC1CCCCC1 | 2.5 | .
COc1ccc(-c2nsc(SCC(=O)c3ccc(Cl)cc3)n2)cc1 | 0.9 | -1.1
C[C@@H]1CN([C@H](C)CO)C(=O)c2cc(NC(=O)NC3CCCCC3)ccc2O[C@@H]1CN(C)C(=O)Nc1ccc(F)cc1 | 3.5 | -0.2
C[C@H](CO)N1C[C@H](C)[C@@H](CN(C)Cc2ccc3c(c2)OCO3)Oc2ccc(NS(=O)(=O)c3ccc(F)cc3)cc2C1=O | 4.8 | -0.8
CCC(CC)C(=O)N1c2ccccc2CCc2ccccc21 | -2.1 | -0.6
C[C@H](CO)N1C[C@H](C)[C@@H](CN(C)S(=O)(=O)c2ccc(F)cc2)Oc2ccc(NC(=O)Nc3ccc(F)cc3)cc2C1=O | 0.4 | 0.1
C[C@@H]1CN([C@H](C)CO)C(=O)c2cccc(NC(=O)C3CCOCC3)c2O[C@@H]1CN(C)C(=O)Nc1ccc(C(F)(F)F)cc1 | -0.2 | .
O=C(NC1CCCCCCC1)c1cccn2c(=O)c3cc(Br)ccc3nc12 | -5.3 | 0.7
NC(=O)C1CCN(C(=O)CSc2ncccn2)CC1 | -0.1 | 0.5
CC(C)c1ccc(Nc2nnns2)cc1 | -3.1 | -0.6

Single records, from the list above. Order of screens: BJeLR viab HTS	A1 inhib
CC(C)c1ccc(Nc2nnns2)cc1 in the list: -3.1	-0.6
CC(=O)O[C@@H]1[C@@H](O)C[C@@]2(C)C(CC[C@@H](C)C23Cc2c(O)cc4c(c2O3)CN([C@@H](CCC(=O)O)C(=O)O)C4=O)C1(C)C (stereo not given in full) in the list: 6.0	0.8
O=C1c2ccccc2C(=O)N1CC1COc2ccccc2O1 (stereo not given) in the list: 1.6	-0.1
C[C@@H]1CN([C@H](C)CO)C(=O)c2cccc(NC(=O)C3CCOCC3)c2O[C@@H]1CN(C)C(=O)Nc1ccc(C(F)(F)F)cc1 in the list: -0.2	.

The list goes on.
SMILES | BJeLR viab HTS | A1 inhib
C[C@@H]1CN([C@H](C)CO)C(=O)c2cc(NS(=O)(=O)c3cn(C)cn3)ccc2O[C@H]1CN(C)Cc1ccc(C(F)(F)F)cc1 | 2.3 | -0.5
COc1ccc(C=NCc2ccc(OC)c(OC)c2)cc1OC | 1.2 | -0.6
O=C(c1ccccc1)n1nc(-c2ccccc2)nc1NCc1ccco1 | 0.7 | .
C[C@H](CO)N1C[C@H](C)[C@H](CN(C)Cc2ccc(Cl)c(Cl)c2)Oc2ccc(NC(=O)c3ccncc3)cc2C1=O | -1.7 | -0.4
C[C@H](CO)N1C[C@H](C)[C@H](CN(C)Cc2ccc(C(F)(F)F)cc2)Oc2ccc(NC(=O)c3ccncc3)cc2C1=O | -3.0 | -0.3
CCOC(=O)COc1c(C#N)sc2c1c(=O)n(-c1ccccc1)c(=S)n2-c1ccccc1 | 2.7 | 1.0

Source: PubChem BioAssay (Broad Institute)
